Assay outcomes from PubChem BioAssay.
miR-21 FLuc: miR-21 reporter, rising signal | HeLa miR-21 FLuc reporter, luciferase, 48 h | Potency, µM (top dose mostly 38.3 µM), for the others: top-dose reporter change, positive = more light | 340,000 tested, under 10 active; active = well fitted rising curve with a large enough effect; inconclusive = small, poorly fitted or top-dose-only effect; inactive = no such curve, though single readings can be large or run the other way;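 further: % of control where 0% means no effect; miR-21 action dims this reporter so a rising signal means less miR-21 action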
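Using DMEM plus 10% FBS, HeLa miR-21-FLuc cells are incubated with test compounds (final up to about 40uM) for 48 hours; firefly luciferase signal is then imaged following reagent-mediated lysis.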
GLA inh pH 4.5: alpha-galactosidase A (human) inhibition, pH 4.5; P06280; purified enzyme, 4-MU-alpha-Gal fluorescence, pH 4.5; activity change, negative = inhibition, % at 105 µM; 230,000 tested, under 10 active; inconclusive = small, poorly fitted or top-dose-only inhibition, or a rising curve; inactive = flat fitted curve, though single readings scatter; no compound was filed as active;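 further: 0% = full activity with enzyme and -100% = basal without enzyme; dose as in the result columns while the protocol names 77 µM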
Target sequence (P06280 whole entry, looked up): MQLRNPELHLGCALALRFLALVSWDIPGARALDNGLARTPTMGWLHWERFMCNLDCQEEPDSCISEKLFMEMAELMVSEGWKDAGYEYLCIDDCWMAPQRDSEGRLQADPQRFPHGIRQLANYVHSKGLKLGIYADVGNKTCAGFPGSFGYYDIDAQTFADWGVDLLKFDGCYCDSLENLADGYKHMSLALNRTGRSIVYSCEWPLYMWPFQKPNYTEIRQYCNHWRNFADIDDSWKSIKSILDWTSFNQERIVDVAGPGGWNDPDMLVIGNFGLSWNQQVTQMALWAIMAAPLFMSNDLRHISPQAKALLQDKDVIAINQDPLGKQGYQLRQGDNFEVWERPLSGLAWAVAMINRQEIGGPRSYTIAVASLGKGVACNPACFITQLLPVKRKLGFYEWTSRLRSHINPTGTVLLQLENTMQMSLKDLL
Rango-impB inh: Rango-importin beta binding inhibition. Potency, µM (highest dose often 92.2 µM), for inactives: top-dose inhibition of complex formation. Rango CFP/YFP FRET sensor + importin beta, 45 min. Q14974. 340,000 tested, 0.031% active. AID 540263; active = rising FRET ratio curve, often small or poorly fitted; inconclusive = mostly compound fluorescence or quenching in the first reads; inactive = flat curves in all reads;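 further: potency means the concentration at half of the fitted maximal effect; 0% = DMSO wells and 100% = buffer wells lacking importin beta; nearly all actives have a fitted effect of over 15% in size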
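FRET biosensor Rango (snurportin 1 IBB between N-terminal EYFP and C-terminal Cerulean), 50 nM in PBS/1 mM DTT/0.02% Tween-20/0.1% BSA, preincubated 5 min RT with compound; 0.125 microM importin beta added, 45 min RT, CFP/YFP FRET ratio read.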
Rango dissoc inh: prevents RanGTP from dissociating the Rango-importin beta complex; O95149+P62826; Biochemical FRET Rango-importin beta, RanGTP-induced dissociation; Potency, µM (top dose mostly 46.1 µM), for the others: at the highest dose activity change, negative = inhibition; 340,000 tested, 0.071% active; active means falling FRET ratio curve, often poorly fitted, with flat reads before Ran was added; inconclusive means other falling curves, or compound fluorescence or quenching; inactive means flat or rising ratio curve;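 further: potency means the concentration at half of the fitted maximal effect; % of control where 0% means no effect; nearly all actives have a fitted effect of over 45% in size; -100% = wells without RanGTP and RCC1; the record marks most hits as doubtful in a second field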
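Compounds sat 5 min at room temperature with 0.1 uM Rango biosensor plus 0.25 uM importin beta, then FRET pre-read. RanGTP-RCC1 (0.6 uM Ran, 2mM GTP, 0.2 uM RCC1) added for 45 min, and the CFP/YFP post-read measured blocked complex dissociation.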
* = called active by the depositor; ? = inconclusive; nt = not tested or not shown; & = joins results of further samples.

Rango dissoc inh | miR-21 FLuc | GLA inh pH 4.5 | Rango-impB inh | compound
-1% | 3% | 0 | -1.5% | O=C(CCc1nnc(CCCc2ccccc2)o1)NCCN1CCOC1=O
-15% | 3% | -8 | -0.8% | COc1cccc(N2CCN(CC(=O)c3c[nH]c4ccc(OC)cc34)CC2C)c1 (centres undefined)
-13% | -10% | -6 | -0.6% | COCC(=O)Nc1sc2c(c1C(=O)OC)CCC(C)C2 (centres undefined)
0% | -4% | nt | -1.5% | Cc1c(Cc2ccccc2)c(=O)oc2c(C)c(OC(C)C(=O)N[C@@H](Cc3ccccc3)C(=O)O)ccc12 (some centres undefined)
2% | 9% | 5 | -0.4% | Cc1cc(C)c(C(=O)COC(=O)c2ccc([N+](=O)[O-])o2)cc1C
7% | -5%&-7% | nt | 2.3% | CCOc1ccc(CNC(=O)c2ccc3c(c2)N(CC)CCS3)cc1
-5% | -24% | 12 | -0.1% | Cc1ccc(CNc2oc(-c3cccs3)nc2C#N)cc1
-1% | 0% | 4 | 0.4% | CCCNS(=O)(=O)c1ccc(OCC(=O)N(C)Cc2ccccc2)cc1
5% | nt | nt | -2.7% | CC(C)CN(C(=O)CN(C)CC(=O)Nc1ccccc1C#N)c1c(N)n(CC(C)C)c(=O)[nH]c1=O
-2% | 3% | 4 | -3.0% | CC1=CS(=O)(=O)CC1Sc1nc2ccccc2[nH]1 (centres undefined)
1% | -8% | -2 | -1.1% | COc1ccc(NC(=O)c2c(NC(=O)CCC(=O)O)sc3c2CCCCC3)cc1
24% | nt | nt | 0.3% | CN1CCN(C(CNC(=O)C(=O)Nc2ccc3c(c2)OCO3)c2ccc(F)cc2)CC1 (centres undefined)
-9% | -17% | -8 | -3.3% | CCn1c(C)nc2cc(C(=O)OC(C(F)(F)C(F)F)C(F)(F)C(F)F)ccc21
-2% | -12% | -1 | 2.3% | O=C(CCC(=O)OCC(=O)c1ccc(-c2ccccc2)cc1)Nc1cccc2cccnc12
7% | nt | nt | -4.7% | COc1cc([N+](=O)[O-])c2nc(C(=O)O)ccc2c1
-6% | 21% | -5 | 1.1% | COc1ccc([N+](=O)[O-])cc1N(CC(=O)NCCC1=CCCCC1)S(C)(=O)=O
-14% | 4% | nt | -0.3% | CN(C(=O)COc1ccc2ccc(=O)oc2c1)C1CCS(=O)(=O)C1 (centres undefined)
? | nt | nt | ? | O=c1c2ccccc2nc(/C=C/c2ccc(Br)cc2)n1CCO
20% | 8% | 6 | 3.6% | CCOc1ccc(OCC)c(Nc2cc(C)nc3nc(C)nn23)c1
0% | 0% | nt | 0.2% | O=C(COC(=O)C1C2CC3OC(=O)C1C3C2)Nc1ccccc1 (centres undefined)
-12% | nt | nt | -0.7% | CC1CC(NC(=O)c2c(O)nc3sccn3c2=O)CC(C)(C)C1 (centres undefined)
-10% | 1% | nt | 1.3% | CCc1cc(=O)oc2cc(C)cc(OCC(=O)N[C@@H](CSCc3ccccc3)C(=O)O)c12
1% | 0% | -2 | 0.6% | O=C1C2C(C(=O)N1c1ccncc1)C1C=CC2C12CC2 (centres undefined)
18% | nt | nt | 0.6% | OCCNc1nc(Nc2ccc(Cl)cc2)nc(N2CCCC2)n1
-11% | -56% | 4 | 0.4% | COc1cc2c(cc1NC(=O)c1cccnc1)oc1ccccc12
? | -62% | -1 | ? | Cc1ccc2nc3sc(C(=O)NCc4ccco4)c(N)c3cc2c1
-4% | 16% | -17 | -2.3% | O=C(CCl)Nc1ccc(N=Nc2ccccc2)cc1
-3% | ? | nt | 1.2% | COc1ccccc1NCC(=O)c1ccc(Cl)cc1
-18% | nt | -19 | -0.4% | COc1ccc(C2/C=C\CN(CC(C)C)CC(=O)N2Cc2cccc(F)c2)cc1 (centres undefined)
6% | 5% | nt | -0.3% | CCOC(=O)c1ccc(NS(=O)(=O)c2c(C)nc3sccn3c2=O)cc1

Grouped by structure: the entries above with two or more sulfur atoms
Rango dissoc inh | miR-21 FLuc | GLA inh pH 4.5 | Rango-impB inh | compound
-2% | 3% | 4 | -3.0% | CC1=CS(=O)(=O)CC1Sc1nc2ccccc2[nH]1 (centres undefined)
6% | 5% | nt | -0.3% | CCOC(=O)c1ccc(NS(=O)(=O)c2c(C)nc3sccn3c2=O)cc1

Further structures follow:
Rango dissoc inh | miR-21 FLuc | GLA inh pH 4.5 | Rango-impB inh | compound
1% | -5% | 6 | -0.1% | Cc1ccc2occ(CN3CCN(c4ccccc4)CC3)c(=O)c2c1
-11% | nt | nt | -1.8% | Cc1nc2nc(-c3ccccc3)nn2c(C)c1C
28% | 0% | nt | ? | Oc1ccc(-n2nnnc2SCc2c(F)cccc2Cl)cc1
-1% | nt | nt | -1.1% | CN(CC(=O)Nc1ccccc1Cl)C(=O)COC(=O)C1=COCCO1
? | 24% | 0 | 1.6% | CCOc1ccc(CN(Cc2ccco2)C(c2cccs2)c2nnnn2C(C)(C)C)cc1 (centres undefined)
-4% | 0% | nt | 0.3% | O=C(CCc1ccccc1)N/N=C\c1cc2c(cc1Br)OCO2
4% | -62% | -2 | 1.4% | CC1CCC/C(=C\Nc2ccc(C(=O)O)cc2)C1=O (centres undefined)
5% | 2% | -4 | 0.3% | O=C(Cn1nc(-c2ccccc2)ccc1=O)NCC1CCCO1 (centres undefined)
4% | -74% | 13 | -1.8% | CN(C)c1ccc(-n2cc3c(=O)n(C)c(=O)n(C)c3c2)cc1
1% | nt | nt | ? | COc1ccc(C(=O)C(C)OC(=O)CCN2C(=O)C3CC=CCC3C2=O)cc1 (centres undefined)
5% | -1% | 2 | -0.3% | C=CCn1c(=O)/c(=C2/SC(C)=C(C)N2CC)s/c1=C1/C(=O)N(CC)C(=S)N1c1ccccc1
0% | -6% | nt | -2.4% | COc1ccc(S(=O)(=O)N2CCCC(C(=O)NCC3CCCO3)C2)cc1Cl (centres undefined)
-7% | nt | nt | 3.1% | Cc1ccc2nc(N(CCCN(C)C)C(=O)CS(=O)(=O)c3ccccc3)sc2c1
5% | -5% | nt | 4.2% | Cc1ccccc1NC(=O)c1ccc(C)c(S(=O)(=O)Nc2cccnc2)c1
2% | 1% | 2 | -0.2% | CC(C)N(C(=O)Cn1cc(S(=O)(=O)CC(=O)NC2CCCCC2)c2ccccc21)C(C)C
1% | 18% | -1 | -4.7% | O=C1C=CC(=O)N1c1ccc(O)cc1
7% | -7%&-47% | nt | 1.7% | Cc1ccccc1N(C)S(=O)(=O)c1nnc(NC(=O)c2ccccc2F)s1
-3% | nt | nt | 2.0% | CSCCC(NC(=O)c1ccco1)C(=O)NCCc1ccc(F)cc1 (centres undefined)
3% | 7% | 5 | 1.8% | CCSC1=C(C#N)C(c2cccc(Br)c2)CC(=O)N1 (centres undefined)
4% | 1% | -7 | 1.4% | O=[N+]([O-])c1cccc(-c2ccc(C(=S)N3CCN(c4ccc(F)cc4)CC3)o2)c1
-7% | 25% | -2 | 1.3% | CN(C)CCNc1cc(-c2ccncc2)nc2ccccc12
8% | -58% | nt | -4.6% | COC(=O)C1CCN(C(=O)c2ccc3nc(-c4cccc(OC)c4)oc3c2)CC1
-13% | -6% | -4 | 0.2% | Cc1c(NC(=O)c2ncn[nH]2)cccc1-c1nc2ccccc2s1
-17% | -9% | nt | -0.4% | COc1cccc(C(=O)NNC(=O)C(=O)Nc2cccc3ccccc23)c1
8% | -26% | -11 | 1.2% | CNc1cc(N2CCCCCC2)ccc1[N+](=O)[O-]
1% | -32% | 6 | -4.2% | CCc1nnc2sc(-c3ccc(NC(=O)c4ccco4)cc3)nn12
-3% | nt | nt | -1.4% | CC(C)OC(=O)c1c(N)sc2c1CCCC2
1% | nt | nt | 4.5% | CCCC1(C)C(C#N)C(=O)NC(=O)C1C#N (centres undefined)
1% | -2% | -8 | 0.8% | COc1ccccc1N1CCN(c2cc(N3CCCC3)nc(C)n2)CC1
6% | -7% | 5 | 0.8% | CC(C)c1nnc(NC(=O)CCN2C(=O)c3ccccc3C2=O)s1

Some entries already given, limited to GLA inh pH 4.5 and Rango-impB inh.
| Structure | GLA inh pH 4.5 | Rango-impB inh |
| --- | --- | --- |
| COc1ccccc1N1CCN(c2cc(N3CCCC3)nc(C)n2)CC1 | -8 | 0.8% |
| CCOc1ccc(CN(Cc2ccco2)C(c2cccs2)c2nnnn2C(C)(C)C)cc1 (centres undefined) | 0 | 1.6% |

(next part)
Rango dissoc inh | miR-21 FLuc | GLA inh pH 4.5 | Rango-impB inh | compound
nt | -33% | 5 | nt | CCc1c(C(C)O)oc2ccc3c(C)cc(=O)oc3c12 (centres undefined)
32% | -4% | -17 | -2.1% | Cc1ccc(S(=O)(=O)N/N=C/c2ccc(OCC(=O)N3CCOCC3)cc2)cc1
2% | nt | nt | -1.6% | Cc1c(C)n2c(SCC(=O)N3CC(C)OC(C)C3)nnc2[nH]c1=O (centres undefined)
11% | nt | nt | 1.2% | O=C(c1cccc(S(=O)(=O)NCc2ccccc2)c1)N1CCCC(C(F)(F)F)C1 (centres undefined)
-12% | -8% | 0 | -0.9% | Cc1cc(-c2n[nH]c(=S)n2/N=C/C=C/c2ccccc2)n[nH]1
? | -44% | nt | ? | COc1cc(OC)c(OC)cc1/C=C1\SC(N2CCCCC2)=NC1=O
6% | -5% | 3 | -3.6% | CC1=C(C(=O)N2CCOCC2)C(c2ccc(C)cc2)NC(=S)N1 (centres undefined)
? | -1% | nt | 1.5% | COc1ccc(S(=O)(=O)NCC(=O)NCc2cc(=O)n(C)c(=O)n2C)cc1
3% | nt | nt | 0.8% | Cc1ccccc1-c1cc(C(=O)NCc2ccco2)n(CC2CC(c3cccnc3)=NO2)n1 (centres undefined)
-13% | 2% | -4 | 0.4% | COc1ccccc1N1CCN(C(=O)c2ccc(CN3CCOCC3)cc2)CC1
0% | nt | nt | -2.1% | COc1cccc(CNC(=O)C2CCCN(C(=O)c3ccc(Cl)cc3)C2)c1 (centres undefined)
19% | nt | nt | 0.9% | O=CN1c2ccccc2CSc2ccccc21
2% | -1% | nt | 0.5% | CCC(C)(C)NC(=O)CN(C(=O)CCC(=O)Nc1nccs1)c1ccc2c(c1)OCO2
2% | 6% | -3 | -2.7% | CC1(c2nnc(-c3ccc(F)cc3)o2)CC(c2cccc(Cl)c2)=NO1 (centres undefined)
-17% | -25% | 5 | -1.7% | Cc1cc(-c2nc3ncccc3o2)ccc1NC(=S)NC(=O)c1ccco1
-19% | -2% | 6 | 0.7% | Cc1ccnc(NC(=O)C2CCN(S(=O)(=O)c3cccc4nonc34)CC2)c1
-13% | -5% | 0 | -2.6% | CCOc1ccc(OCC)c(NC(=O)CN2CCN(C(=O)c3ccco3)CC2)c1
21% | 13% | nt | 0.0% | C/C(=N\NC(=O)CN1CCCCC1)c1ccccc1O
10% | 3% | -13 | ? | CCOC(=O)c1cc(-c2ccc(N3CCOCC3)cc2)nn1-c1ccccc1C(=O)O
23% | 12% | nt | 0.7% | CC1CCCN(C(=O)c2ccc([N+](=O)[O-])o2)C1 (centres undefined)
26% | nt | nt | 3.4% | NC(=O)CC[C@H](NC(=O)c1ccc(Cl)cc1)C(=O)NNC(=O)COc1cccc(Br)c1

An excerpt from above in order of their number in Rango-impB inh, rising:
Rango dissoc inh | miR-21 FLuc | GLA inh pH 4.5 | Rango-impB inh | compound
0% | nt | nt | -2.1% | COc1cccc(CNC(=O)C2CCCN(C(=O)c3ccc(Cl)cc3)C2)c1 (centres undefined)
-12% | -8% | 0 | -0.9% | Cc1cc(-c2n[nH]c(=S)n2/N=C/C=C/c2ccccc2)n[nH]1
-13% | 2% | -4 | 0.4% | COc1ccccc1N1CCN(C(=O)c2ccc(CN3CCOCC3)cc2)CC1
-19% | -2% | 6 | 0.7% | Cc1ccnc(NC(=O)C2CCN(S(=O)(=O)c3cccc4nonc34)CC2)c1
11% | nt | nt | 1.2% | O=C(c1cccc(S(=O)(=O)NCc2ccccc2)c1)N1CCCC(C(F)(F)F)C1 (centres undefined)
? | -1% | nt | 1.5% | COc1ccc(S(=O)(=O)NCC(=O)NCc2cc(=O)n(C)c(=O)n2C)cc1

An excerpt, so the mix of outcomes need not match the whole.
